VACV Venus inh = vaccinia inhibition (Venus reporter); actives 0.46% (n = 330,000); Vaccinia virus Venus reporter expression, fluorescence; Potency, µM (titrated, usually from 36.5 µM), inactives show at the top dose activity change, negative = inhibition, hits mostly inhibitors; active means well fitted inhibition curve with a large enough effect; inconclusive means small, poorly fitted or top-dose-only effect; inactive means no such curve, though single readings can be large or run the other way; tested in A549 cells; also: nearly all actives have a fitted effect of over 30% in size; inactives centre near -10
VACV mCherry inh = inhibitors of vaccinia virus infection (mCherry reporter signal); Vaccinia virus mCherry reporter infection, fluorescence; about a quarter of the inactives have no number; actives 0.63% (n = 310,000); Potency, µM (series often up to 36.5 µM), for the others: top-dose activity change, negative = inhibition, hits mostly inhibitors; active = well fitted inhibition curve with a large enough effect; inconclusive = small, poorly fitted or top-dose-only effect; inactive = no such curve, though single readings can be large or run the other way; tested in A549 cells; also: nearly all actives have a fitted effect of over 35% in size; inactives centre near -10
* = called active by the depositor; i = inactive; ? = inconclusive; . = no result given; & = joins results of further samples; [ ] = remark or other dose. % is scaled to controls: 0 for no effect and ±100 for the full control effect; potency is read from the fitted curve at half-maximal effect. Rows are unselected, and some 0.87% of all compounds hit somewhere here.

Values run as follows: VACV Venus inh	VACV mCherry inh
- CC(C)(C)S(=O)(=O)c1cnc2c(-c3ccsc3)cnn2c1N
  -5%	i
- S=C(NCCc1ccccc1)N/N=C/c1ccccc1Cl
  -20%	-4%
- Cc1nc2ccc(NC(=O)CCS(=O)(=O)c3ccc(Cl)cc3)cc2s1
  -24%	?
- O=C1Nc2cc(C(=O)NCCN3CCCCCC3)ccc2S/C1=C/c1ccccc1F
  13µM*	?
- CC(=O)c1cccc(-c2ccnc3c2CC(C(=O)NCC2CC2)O3)c1 (stereo unspecified)
  -27%	-5%
- Cc1cc(C)c(S(=O)(=O)NCCS(=O)(=O)N2CCN(c3ccccc3)CC2)c(C)c1
  -16%	i
- CCc1ccc(-c2nc(SCC(=O)NC3CC3)n[nH]2)cc1
  -8%	-12%
- Cc1cccc(NC(=S)N=Nc2c(O)[nH]c3ccccc23)c1
  ?	-11%
- Fc1cc(F)c2ncc3c(-c4ccccc4)nn(-c4cccc(Cl)c4)c3c2c1
  8%	4%
- CCCCNC(=O)c1sc2ncccc2c1-n1cccc1
  5%	-10%
- COc1ccc(-n2nc(C(=O)Nc3ccc(C)cn3)c3c4ccccc4n(C)c3c2=O)cc1Cl
  1%	0%
- Cc1ccc(-c2nnn(CC(=O)N(CC(=O)NC3CCCCC3)c3ccccc3F)n2)o1
  -9%	-18%
- CC(C)C(C(=O)N1CCOCC1)N1C(=O)c2ccccc2C1=O (stereo unspecified)
  5%	-10%
- COc1cc(NC(=O)C(NC(=O)C2CCC(C)CC2)C(C)C)cc(OC)c1OC (stereo unspecified)
  -8%	-12%
- O=C1Nc2ccccc2CN2C(=O)c3cc(Cl)ccc3NC(=O)C12 (stereo unspecified)
  -7%	14%
- CCc1nnc(NC(=O)CSc2nc(-c3ccccc3)c(-c3ccccc3)o2)s1
  -9%	-8%
- COc1cc(OC)c(NC(=O)CN2CCCN(Cc3ccccc3C)S2(=O)=O)cc1Cl
  -2%	-2%
- Cc1ccc2c(CN3CCN(Cc4ccc5c(c4)OCO5)CC3)cc(=O)oc2c1C
  -6%	-8%
- O=C(CN1CCOCC1)Nc1cc([N+](=O)[O-])ccc1Cl
  -11%	i
- O=C(Nc1cccc2c1CCCC2)c1ccc(Cl)c([N+](=O)[O-])c1
  4%	3%

Arranged by heavy-atom count (rising): part of the list above
Values run as follows: VACV Venus inh	VACV mCherry inh
- CCc1ccc(-c2nc(SCC(=O)NC3CC3)n[nH]2)cc1
  -8%	-12%
- CC(C)(C)S(=O)(=O)c1cnc2c(-c3ccsc3)cnn2c1N
  -5%	i
- Cc1nc2ccc(NC(=O)CCS(=O)(=O)c3ccc(Cl)cc3)cc2s1
  -24%	?

A different layout for part of the listing above:
Cc1cc(C)c(S(=O)(=O)NCCS(=O)(=O)N2CCN(c3ccccc3)CC2)c(C)c1
  VACV Venus inh: -16%	VACV mCherry inh: i

CCc1ccc(-c2nc(SCC(=O)NC3CC3)n[nH]2)cc1
  VACV Venus inh: -8%	VACV mCherry inh: -12%

Cc1cccc(NC(=S)N=Nc2c(O)[nH]c3ccccc23)c1
  VACV Venus inh: ?	VACV mCherry inh: -11%

Fc1cc(F)c2ncc3c(-c4ccccc4)nn(-c4cccc(Cl)c4)c3c2c1
  VACV Venus inh: 8%	VACV mCherry inh: 4%

(continued)
Values run as follows: VACV Venus inh	VACV mCherry inh
- CC(C)CN(C(=O)COC(=O)c1ccc2c(c1)OCO2)c1c(N)n(Cc2ccccc2)c(=O)[nH]c1=O
  -12%	i
- C[N+](C)(C)Cc1ccccc1
  -9%	-12%
- CCOC(=O)CSc1nnc(CNC(=O)c2cccs2)n1-c1ccccc1
  -2%	-6%
- Cc1cc(C)c2oc(=O)cc(CN3CCN(Cc4ccc5c(c4)OCO5)CC3)c2c1
  -23%	.
- COc1ccccc1C(C#N)N1N=C(C)CC1(C)C (stereo unspecified)
  -16%	-1%
- CCCn1c(SCC(=O)c2cc(OC)ccc2OC)nnc1-c1ccco1
  -7%	-13%
- CN1CCN(S(=O)(=O)c2ccc(NC(=S)NC(=O)C3CC3)cc2)CC1
  -6%	-10%
- COC(=O)c1cc(CSc2nc3ccccc3c(=O)n2C)oc1C
  -5%	-14%
- COc1cccc(C(=O)NCCSc2ccc(F)cc2)c1
  -7%	-8%
- CC1=NN(c2ccccc2)C(=O)/C1=C/c1c(O)[nH]c(=S)[nH]c1=O
  -19%	i
- Cc1nc2ccc(S(=O)(=O)N(C)CC(=O)Nc3ccc(Br)c(C)c3)cc2s1
  -23%	-9%
- Cc1cccc(CNC(=O)c2cnn(-c3nccc(-c4cc5ccccc5o4)n3)c2C2CC2)n1
  -11%	-21%
- CN(C)C(CNC(=O)c1ccco1)c1cccs1 (stereo unspecified)
  -3%	-6%
- CCOC(=O)N1CCC(NC(=O)C2CCCN(C(=O)c3cc4sccc4n3C)C2)CC1 (stereo unspecified)
  1%	-17%
- Cc1sc(NC(=O)c2ccc(F)cc2)c(CN2CCCCCC2)c1C
  -2%	-14%
- OC1CCN(Cc2cccc(Oc3ccccc3)c2)CC1
  -9%	-18%
- CN1/C(=C\C(=O)Nc2cccnc2)c2ccccc2CC1(C)C
  -2%	-2%
- CCOc1ccccc1N1CSC2=C(C#N)C(c3c(OC)ccc4ccccc34)CC(=O)N2C1 (stereo unspecified)
  2%	?
- Cc1ccc(NC(=O)CSc2nc(=O)n(CCCN(C)C)c3c2CCC3)cc1F
  -16%[7.34 µM]	-14%[7.34 µM]
- Cc1ccnc2nc(C(=O)OCC(=O)Nc3ccc4c(c3)OCCO4)nn12
  -13%	0%

Following part:
Values run as follows: VACV Venus inh	VACV mCherry inh
- CCOc1ccc(S(=O)(=O)N2CCOCC2)cc1NC(=O)CSC(=S)N1CCCC1
  2%	-11%
- CC/C(=N\NC(=O)c1ccc(CN(C)S(=O)(=O)c2ccc(C)cc2)cc1)c1ccc(OC(F)F)cc1
  -5%	i
- Cc1ccc(S(=O)(=O)c2nc(-c3ccco3)oc2SCC(C)C)cc1
  -7%	-12%
- O=C(O)CCCNC(=O)/C=C/c1ccco1
  -4%	-15%
- Cc1ccccc1N1CCN(C2CCCN(C(=O)CSc3ccccn3)C2)CC1 (stereo unspecified)
  -14%	-6%
- COCCn1c(SCc2ccccc2Cl)nc2c1c(=O)[nH]c(=O)n2C
  ?	.
- COC(=O)Cc1c(C)c2cc3c(c(C)c2oc1=O)OCN(CCc1ccc(OC)cc1)C3
  -6%	-15%
- COc1cccc(Oc2ccc(N/C=C/C(=O)C(C)(C)C)cc2)c1
  -29%	?
- CC(C)c1cc(C(=O)N2CCOc3ccc(CN4CCC(Oc5cccnc5)CC4)cc3C2)n[nH]1
  10%	3%
- COc1ccc(CNS(=O)(=O)c2cccc(S(=O)(=O)N3CCOCC3)c2)cc1
  -11%	i
- Cc1ccc(S(=O)(=O)N2CC(O)C[C@H]2C(=O)OCC(=O)Nc2ccc(N3CCOCC3)cc2)cc1C (stereo partly specified)
  -12%	-10%
- COc1cc(C(=O)Nc2nnc(S(=O)(=O)N(C)c3ccccc3)s2)cc(OC)c1OC
  0%	1%
- CCCCOc1ccc(C2CC(=O)N(C)C2=O)cc1 (stereo unspecified)
  -18%	.
- COc1ccc(/C=C/C(=O)OCC(=O)c2cc(C)ccc2C)cc1
  -20%	?
- Cn1c(=O)[nH]c(=O)c2c1nc(Sc1nc3ccccc3s1)n2Cc1ccccc1
  4µM*	.
- CCOc1ccccc1Nc1nc2ccccc2n2cnnc12
  -1%	-17%
- CC1(C(=O)NS(=O)(=O)C2CC2)CCCN(C(=O)COc2ccccc2)C1 (stereo unspecified)
  7%	4%
- COc1cc2c(cc1OC)C(c1ccccc1F)OC(=O)C2 (stereo unspecified)
  -27%	-8%
- O=C(Nc1c(C(=O)C2CC2)oc2ccccc12)c1ccc(Cl)cc1
  -7%	-7%
- CCN(CC)C(=O)C1=C(C)N(Cc2ccc(F)cc2)C(=O)C(CC(=O)NC(c2ccccc2)c2ccccc2)C1 (stereo unspecified)
  -16%	i

Following part.
Values run as follows: VACV Venus inh	VACV mCherry inh
- O/N=C/c1ccnc(SCc2ccc(Cl)cc2)n1
  -29%	-12%
- COc1ccc(-c2cc3ccccc3cn2)cc1
  -11%	-29%
- CCn1cnc2cc(NCc3nc4ccccc4n3C)ccc21
  -6%	i
- O=C(c1cc2ccccc2o1)N1CCN(Cc2nc3ccccc3s2)CC1
  -4%	-6%
- CC(C)(C)OC(=O)N1CCC[C@H]1C(=O)Nc1ccc(C#N)cc1
  -18%	i
- COc1cccc(/C=N/NC(=O)c2cc3c(OC)cccc3[nH]2)c1O
  ?	?
- COC(=O)C[C@H]1C=C[C@H](NC(=O)Nc2ccccc2F)[C@@H](CO)O1
  2%	-1%
- COCCN(C(=O)COC(=O)C1COc2ccccc2O1)c1c(N)n(Cc2ccccc2)c(=O)[nH]c1=O (stereo unspecified)
  -2%	-11%
- COC(=O)CCN(C(=O)c1ccc2c(c1)OCO2)c1ccccn1
  -11%	-16%
- Cc1ccc(NC(=O)Cn2c(O)c(N=NC(=O)c3cc4ccccc4cc3O)c3ccccc32)cc1
  -14%	-20%
- Cc1ccc(F)cc1S(=O)(=O)N1CCC(c2nc3ccccc3s2)CC1
  -19%	-14%
- COc1ccc(CNC(=O)CN(C)S(=O)(=O)c2ccc(Br)s2)cc1
  -7%	-4%
- COC(=O)CP(=O)(c1ccccc1)c1ccccc1
  -5%	.
- CCOc1c(Br)cc(C2NS(=O)(=O)N=C3CCCCCN32)cc1OC (stereo unspecified)
  -15%	-19%
- Cc1ccccc1Nc1nc(Nc2ccccc2C)nc(SC2=NCCS2)n1
  ?	-18%
- C=CCNC(=O)/C(=C/c1ccco1)NC(=O)c1ccc(Br)o1
  5%	-10%
- CCN(C[C@H]1N[C@@](CC)(C(=O)OC)[C@H]2C(=O)N(C)C(=O)[C@@H]12)S(=O)(=O)c1ccc(C(C)(C)C)cc1
  ?	i
- CC1CN(CC(=O)NCCc2ccncc2)Cc2ccccc2O1 (stereo unspecified)
  2%	-10%
- CC1=C(C(=O)N(C(C)C)C(C)C)CC(CC(=O)NCc2ccco2)C(=O)N1Cc1ccc(C(C)(C)C)cc1 (stereo unspecified)
  -10%	8%
- CC1(CCc2ccccc2)NC(=O)N(CC(=O)Nc2ccccc2)C1=O (stereo unspecified)
  -12%	-4%

Profiles, looked up by structure.
CCn1cnc2cc(NCc3nc4ccccc4n3C)ccc21 reads VACV Venus inh: -6%; VACV mCherry inh: i
CC1=C(C(=O)N(C(C)C)C(C)C)CC(CC(=O)NCc2ccco2)C(=O)N1Cc1ccc(C(C)(C)C)cc1 (stereo unspecified) reads VACV Venus inh: -10%; VACV mCherry inh: 8%
CCN(C[C@H]1N[C@@](CC)(C(=O)OC)[C@H]2C(=O)N(C)C(=O)[C@@H]12)S(=O)(=O)c1ccc(C(C)(C)C)cc1 reads VACV Venus inh: ?; VACV mCherry inh: i

(list continues)
Values run as follows: VACV Venus inh	VACV mCherry inh
- CCC(C)N(C(=O)CSc1nnc(NC(C)C)s1)C1CCS(=O)(=O)C1 (stereo unspecified)
  -7%	-9%
- CCOC(=O)Oc1c(OC)cc(C(=O)O[C@@H]2C[C@@H]3CN4CCc5c([nH]c6cc(OC)ccc56)[C@H]4C[C@@H]3[C@H](C(=O)OC)[C@H]2OC)cc1OC
  ?	?
- O=C(NC1CC1)C1=NOC(CNc2ncc(C(F)(F)F)cc2Cl)C1 (stereo unspecified)
  ?	i[1.46 µM]
- COCc1ccc(-c2c(-c3ccsc3)oc(=O)c3cc(OC)c(OC)cc23)cc1
  -28%	?
- CCCCC(=O)Nc1nnc(C2=COCCO2)o1
  -1%	8%
- CCCN(C(=O)Cn1ncc2c([nH]c3ccc(C)cc32)c1=O)c1ccccc1C
  -13%	-12%
- COc1ccc(NS(=O)(=O)c2cc(NC(=O)c3ccncc3)ccc2N2CCOCC2)cc1
  -26%	-9%
- O=[N+]([O-])c1ccccc1S(=O)(=O)NCc1cccnc1
  -1%&-4%	-1%&-9%
- CCOC(=O)c1c(C)[nH]c(C(=O)N/N=C/c2cccc(OC)c2)c1C
  ?	?
- CCOCCCNC(=O)c1ccc(-n2c(=S)[nH]c3ccccc3c2=O)cc1
  -10%	-2%
- Cc1ccc(OCC(=O)Nc2nnc(S(=O)(=O)N3c4ccccc4CC3C)s2)cc1 (stereo unspecified)
  -10%	-9%
- O=C(Nc1ccc2[nH]ncc2c1)c1ccc(F)cc1
  -5%	-6%
- C#CCOCCOCCOCCNc1nc(N2CCN(C(=O)[C@H](CCCCN)n3cc([C@@H](N)CC(N)=O)nn3)CC2)nc(N2CCN(C(=O)[C@H](CCCCN)n3cc([C@@H](N)CC(N)=O)nn3)CC2)n1
  -19%	i
- NC(=O)c1ccc(NC(=O)CSc2nncn2-c2ccccc2)cc1
  1%	8%
- c1csc(-c2nnc(NC3CCCCC3)c3ccccc23)c1
  ?	?
- CN(CC(=O)Nc1ccc(F)cc1)C(=O)Cn1nnc(-c2ccccc2)n1
  -10%	-18%
- O=C(CSCCS(=O)(=O)c1ccc(Cl)cc1)Nc1ccccc1
  -21%	-8%
- COc1ccccc1N(C(=O)c1snc(C(N)=O)c1N)C(C(=O)NC1CCCCC1)c1cccc(OC)c1OC (stereo unspecified)
  -9%	-13%
- CC(C)N1CCC(N2CCN(Cc3ccc4nsnc4c3)CC2CCO)CC1 (stereo unspecified)
  -11%	?
- O=C(CSc1ccc(Cl)cc1)Nc1cccc(-c2nc3ccccc3[nH]2)c1
  ?	-10%
- CCCCCCC(NC(=O)Cc1ccc2ccccc2c1)C(=O)O (stereo unspecified)
  -9%	i
- O=C(OCn1nnc2ccccc2c1=O)c1ccc2ccccc2n1
  -9%	-4%
